FGF22 binding: shifts melting point of recombinant human FGF22; 340,000 compounds, 1.5% hits; Q9HCT0; recombinant FGF22 thermal shift, SYPRO orange fluorescence; percent of sucrose octasulfate shift, DMSO zero; calls only at 9.99 µM;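 active = melting point raised past a set limit in the mean and every replicate; three in four hits are not shown here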
Target sequence (Q9HCT0 whole entry, looked up): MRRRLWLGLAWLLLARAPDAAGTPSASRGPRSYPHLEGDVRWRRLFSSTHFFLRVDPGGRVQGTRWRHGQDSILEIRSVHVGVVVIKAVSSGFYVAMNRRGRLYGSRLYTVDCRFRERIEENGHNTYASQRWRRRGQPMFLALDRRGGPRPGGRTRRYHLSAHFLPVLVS
Ecoli rRNA inh: inhibitors of bacterial rRNA selective over humanized ribosomes | GFP signal change (wild-type ribosome), % (test concentration not listed) | E. coli WT GFP vs humanized-ribosome RFP mutants, fluorescence, 24 h; active compounds read low; DMSO median 0, no signal -100 | AID 720706 | 350,000 compounds, 1.6% hits;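 active = significant combined selectivity score with lowered wild-type GFP, culture density cut under 30%, mutant RFP and density less affected; inactive = any of these conditions unmet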; also: one replicate is shown; some compounds called inactive have numbers as strong as hits
Ecoli rRNA inh OD600: recorded beside Ecoli rRNA inh, whose call it bears; OD600 change, %; measured here: OD600 growth;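 optical density of the mix in the first replicate; 0 = DMSO median and -100 = no signal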
Ecoli rRNA inh RFP: also measured in Ecoli rRNA inh; calls as there; RFP signal change, %; measured here: RFP humanized mutant strains;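 first replicate; 0 = DMSO median and -100 = no signal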
Numbers without * were called inactive; i = inactive; / = not tested or not shown. The list is partial. The share of hits here may be higher or lower than overall.

SMILES	FGF22 binding	Ecoli rRNA inh	Ecoli rRNA inh OD600	Ecoli rRNA inh RFP
C[C@H](NC(=O)C[C@H]1C=C[C@@H](NC(=O)Nc2ccc3c(c2)OCO3)[C@H](CO)O1)c1ccccc1	i	0	4	-0.1
C/C=C/c1cnc2c(c1)C(=O)N([C@@H](C)CO)C[C@@H](C)[C@H](CN(C)Cc1ccc3c(c1)OCO3)O2	i	3	4	0.7
O=C(C[C@H]1CC[C@@H]2[C@H](COC[C@H](O)CN2C(=O)Nc2ccc(F)cc2)O1)NCCc1ccccc1	i	-6	-4	-4.5
C=CC[C@]12C[C@@]3(O[C@H](c4ccc(C(F)(F)F)cc4)N=C3C[C@H](c3ccc(OC)cc3)[C@H]1C)N(C1CCN(Cc3ccccc3)CC1)C2=O	/	6	13	-5.1
CC=Cc1ccc2n(c1=O)C[C@H]1[C@H](CO)[C@@H](C(=O)NCCC)N(CC3CCOCC3)[C@@H]21 (mixture of isomers)	i	4	16	1.9
C[C@@H]1CN([C@H](C)CO)C(=O)c2cccc(NC(=O)c3nc4ccccc4s3)c2O[C@H]1CN(C)C(=O)Nc1ccc(F)cc1	i	-2	-8	0.5
O=C(C[C@H]1C[C@@H]2c3cc(NC(=O)NC4CCCC4)ccc3O[C@@H]2[C@@H](CO)O1)NCc1ccc2c(c1)OCO2	i	-8	-9	1.2
CNC(=O)C[C@@H]1CC[C@H]2[C@H](COc3ccc(NC(=O)Nc4ccc(Cl)cc4)cc3C(=O)N2C)O1	i	-4	-8	5.2
CCC(=O)Nc1ccc2c(c1)C(=O)N(C)[C@H]1CC[C@H](CC(=O)O)O[C@H]1CO2	i	4	-2	-3.8
COc1ccc(C#Cc2ccc3c(c2)[C@H]2[C@H](CCN2S(=O)(=O)c2cccc(OC)c2)[C@H](CO)N3C)cc1	i	4	19	3.0
O=C(CN1CCOCC1)NCC[C@H]1CC[C@@H](NC(=O)Nc2ccc(Cl)cc2)[C@H](CO)O1	i	-1	0	-0.7
C[C@H]1CN([C@@H](C)CO)C(=O)c2cc(NC(=O)Cc3cn(C)c4ccccc34)ccc2O[C@H]1CN(C)S(=O)(=O)c1ccc(F)cc1	i	1	-5	-0.6
CC=Cc1ccc2n(c1=O)C[C@@H]1[C@@H](CO)[C@H](C(=O)NCC)[C@H]2N1Cc1ccccc1 (mixture of isomers)	i	2	5	-3.5
CO[C@@H]1CN(C)C(=O)c2ccc(NS(=O)(=O)c3ccccc3F)cc2OC[C@H](C)NC[C@@H]1C	i	5	9	1.8
C[C@@H]1CCCCO[C@H](CN(C)S(=O)(=O)c2cccs2)[C@@H](C)CN([C@H](C)CO)C(=O)c2cc(NS(=O)(=O)c3cn(C)cn3)ccc2O1	i	1	1	-1.4
Cc1ccc(S(=O)(=O)N(C)C[C@@H]2Oc3c(NC(=O)c4ccncc4)cccc3C(=O)N([C@@H](C)CO)C[C@H]2C)cc1	i	4	10	-2.0
Cc1ccc(S(=O)(=O)NCC[C@@H]2CC[C@@H](NC(=O)c3cccnc3)[C@@H](CO)O2)cc1	i	-2	1	-0.6
CCCC#Cc1cnc2c(c1)C(=O)N([C@H](C)CO)C[C@H](C)[C@H](CN(C)C(=O)Nc1cccc(F)c1)O2	i	-1	2	3.7
CCCN(C)C[C@@H]1OCCCC[C@@H](C)Oc2ccc(NS(=O)(=O)c3ccccc3)cc2C(=O)N([C@@H](C)CO)C[C@@H]1C	i	0	-8	2.6
O=C(NC1CCCC1)[C@H]1[C@H](CO)[C@H]2Cn3c(ccc(-c4ccccc4)c3=O)[C@H]2N1CCc1ccccc1	i	-21	-56	13
C[C@H]1CN([C@@H](C)CO)S(=O)(=O)c2ccc(C3=CCCC3)cc2O[C@@H]1CN(C)CC1CCOCC1	i	-8	-36	12
COc1ccccc1CNC(=O)C[C@H]1C[C@H]2c3cc(NS(C)(=O)=O)ccc3O[C@H]2[C@@H](CO)O1	i	1	-9	-1.5
CCC(=O)N(C)C[C@H]1Oc2cc(-c3cccnc3)ccc2S(=O)(=O)N([C@H](C)CO)C[C@@H]1C	i	5	7	-1.0
CCCNC(=O)C[C@@H]1CC[C@@H]2[C@H](COC[C@@H](O)CN2C(=O)Nc2c(C)noc2C)O1	i	0	9	-2.1
Cc1ccc(S(=O)(=O)Nc2ccc3c(c2)CC(=O)N([C@@H](C)CO)C[C@@H](C)[C@H](CN(C)C(=O)Nc2ccccc2)O3)cc1	i	2	3	1.9
C[C@@H]1CN([C@@H](C)CO)C(=O)c2cc(C#Cc3ccccn3)cnc2O[C@H]1CN(C)Cc1ccncc1	i	5	14	3.7
C[C@H]1COc2cc(N3CCOCC3)ccc2S(=O)(=O)N1	i	7	15	0.8
C[C@@H]1CN([C@@H](C)CO)C(=O)c2cc(NC(=O)NC3CCCCC3)ccc2O[C@H]1CN(C)C	i	6	9	1.8
CO[C@@H]1CN(C)C(=O)c2cc(NS(C)(=O)=O)ccc2OC[C@H](C)N(C(=O)C2CCOCC2)C[C@H]1C	i	4	6	-2.5
CC(C)NC(=O)N(C)C[C@@H]1Oc2ncc(-c3ccc(F)cc3)cc2C(=O)N([C@H](C)CO)C[C@@H]1C	i	-1	2	0.3
C[C@@H]1CN([C@H](C)CO)C(=O)c2cc(NC(=O)CCC(F)(F)F)ccc2O[C@@H]1CN(C)Cc1ccc2c(c1)OCO2	i	3	3	1.0
CC(C)C#Cc1cnc2c(c1)C(=O)N([C@H](C)CO)C[C@H](C)[C@@H](CN(C)C(=O)c1cccnc1)O2	i	10	9	-1.8
C[C@@H]1CN([C@@H](C)CO)C(=O)c2cc(C#CCC3CCCC3)cnc2O[C@@H]1CN(C)Cc1ccccn1	i	1	-5	13
O=C(C[C@@H]1C=C[C@H](NC(=O)C2CCC2)[C@H](CO)O1)NC1CCC1	i	-1	-1	-0.4
CN1CCN(C(=O)C[C@@H]2CC[C@H]3[C@@H](COC[C@@H](O)CN3S(=O)(=O)c3cccc(Cl)c3)O2)CC1	i	-6	-13	-3.1
COc1ccc(S(=O)(=O)N(C)C[C@H]2OCCCC[C@H](C)Oc3ccc(NC(=O)CCCN(C)C)cc3C(=O)N([C@H](C)CO)C[C@@H]2C)cc1	i	1	-1	-1.2
CCC(=O)Nc1ccc2c(c1)C(=O)N(C)C[C@H](OC)[C@H](C)CN(CC1CC1)[C@H](C)CO2	i	-1	0	-0.6
Cc1cccc(CN(C)C[C@@H]2OCc3cn(nn3)CCCC(=O)N([C@H](C)CO)C[C@@H]2C)c1	i	0	-1	-0.8
C[C@H]1CN([C@@H](C)CO)C(=O)c2cc(C3=CCCCC3)cnc2O[C@@H]1CN(C)C(=O)c1ccc2c(c1)OCO2	i	-9	-14	1.7
COc1ccc(NC(=O)N(C)C[C@@H]2Oc3ccc(NC(=O)NC4CCCCC4)cc3C(=O)N([C@@H](C)CO)C[C@H]2C)cc1	i	-1	-1	0.0
COc1ccccc1NC(=O)N(C)C[C@@H]1Oc2ncc(C#CCN(C)C)cc2C(=O)N([C@H](C)CO)C[C@H]1C	i	3	1	-4.9
O=C(Nc1ccc2c(c1)[C@@H]1C[C@@H](CC(=O)N3CCCCC3)O[C@H](CO)[C@@H]1O2)NC1CCCC1	i	2	8	-0.2
O=C(C[C@@H]1C=C[C@H](NC(=O)Nc2ccc(C(F)(F)F)cc2)[C@@H](CO)O1)NCc1cc(F)cc(F)c1	i	3	-2	-0.4
C[C@@H]1CN([C@@H](C)CO)S(=O)(=O)c2ccc(C3=CCCCC3)cc2O[C@@H]1CN(C)C(=O)CC1CC1	i	-19	-40	-3.0
COc1ccc(NC(=O)N(C)C[C@H]2Oc3ncc(C#CC(C)C)cc3C(=O)N([C@@H](C)CO)C[C@H]2C)cc1	i	4	1	-0.2
COCCNC(=O)C[C@@H]1C[C@@H]2c3cc(NC(=O)C4CCOCC4)ccc3O[C@@H]2[C@H](CO)O1	i	5	3	1.3
CC(C)NC(=O)N(C)C[C@@H]1Oc2ccc(NC(=O)NC3CCCCC3)cc2CC(=O)N([C@@H](C)CO)C[C@@H]1C	i	4	11	-0.9
COc1ccccc1NC(=O)N1CCCCN2[C@@H](CO)[C@@H](c3ccc(-c4ccc(C)cc4)cc3)[C@@H]2C1	i	-56	-74	-12
COc1ccc(NC(=O)Nc2ccc3c(c2)CC(=O)N([C@H](C)CO)C[C@@H](C)[C@@H](CN(C)S(=O)(=O)c2ccc(F)cc2)O3)cc1	i	-4	-5	0.7
COc1ccc(CN2[C@@H]3CN(C(=O)NC(C)C)c4ccccc4[C@@H]3[C@@H]2CO)cc1	i	2	4	3.0
C[C@H](CO)N1C[C@H](C)[C@H](CN(C)C(=O)Nc2ccc(F)cc2)Oc2ccc(NC(=O)c3ccncc3)cc2C1=O	i	4	3	-2.3
COc1cccc(C#Cc2ccc([C@H]3[C@@H](CO)N4C(=O)CN(C(=O)c5ccccc5)C[C@H]34)cc2)c1	i	3	-42	30
C[C@H]1CN([C@@H](C)CO)C(=O)c2cc(/C=C/c3ccccc3)cnc2O[C@H]1CN(C)Cc1cccnc1	i	-3	1	-0.1
C[C@@H]1CCCCO[C@@H](CN(C)Cc2ccc(C(=O)O)cc2)[C@H](C)CN([C@H](C)CO)C(=O)c2cc(NC(=O)c3ccccc3)ccc2O1	i	3	2	-3.6
Cc1noc(C)c1NC(=O)Nc1cccc2c1O[C@H](CN(C)Cc1ccccc1)[C@@H](C)CN([C@H](C)CO)C2=O	i	1	15	-1.9
C[C@H](CO)N1C[C@H](C)[C@@H](CN(C)Cc2ccccc2)Oc2ncc(C#CC3(O)CCCC3)cc2C1=O	i	4	-2	0.2
O=C(C[C@H]1CC[C@H]2[C@@H](COC[C@@H](O)CN2S(=O)(=O)c2ccc(Oc3ccccc3)cc2)O1)NC1CCC1	i	1	-16	-1.8
O=C(O)C[C@H]1C[C@@H]2c3cc(NC(=O)Nc4ccccc4F)ccc3O[C@@H]2[C@@H](CO)O1	i	2	-7	0.1
COc1ccc(NC(=O)N(C)C[C@@H]2OCCCC[C@@H](C)Oc3ccc(NS(=O)(=O)c4c(C)noc4C)cc3C(=O)N([C@H](C)CO)C[C@H]2C)cc1	i	0	-3	1.0
CC(C)C#Cc1ccc2c(c1)O[C@H](CN(C)C(=O)c1cnccn1)[C@H](C)CN([C@@H](C)CO)S2(=O)=O	i	2	1	-0.9
More results.
SMILES	FGF22 binding	Ecoli rRNA inh	Ecoli rRNA inh OD600	Ecoli rRNA inh RFP
CO[C@@H]1CN(C)C(=O)c2cc(NC(=O)C3CCCCC3)ccc2OC[C@@H](C)N(Cc2nccs2)C[C@H]1C	i	-5	1	1.8
C[C@@H]1CN([C@@H](C)CO)C(=O)c2cc(NC(=O)Cn3cnnn3)ccc2O[C@@H]1CN(C)C(=O)Nc1ccc2c(c1)OCO2	i	3	3	-2.9
C[C@@H]1CN([C@H](C)CO)C(=O)c2cccc(NC(=O)c3ccncc3)c2O[C@@H]1CN(C)Cc1ccc(C(=O)Nc2ccccc2N)cc1	i	9	13	-2.2
CC(=O)N(C)C[C@H]1Oc2cc(-c3cccnc3)ccc2S(=O)(=O)N([C@@H](C)CO)C[C@@H]1C	i	-1	-2	-3.2
C[C@H](CO)N1C[C@H](C)[C@@H](CN(C)S(=O)(=O)c2cccs2)Oc2ccc(NC(=O)Nc3ccc(C(F)(F)F)cc3)cc2CC1=O	i	1	-4	-2.7
O=C(NCC[C@H]1CC[C@H](NS(=O)(=O)c2ccccc2)[C@H](CO)O1)c1ccccc1F	i	-9	-9	-0.3
C[C@@H]1CN([C@H](C)CO)S(=O)(=O)c2ccc(-c3ccncc3)cc2O[C@H]1CN(C)C(=O)c1cccc(F)c1	i	-6	-9	-0.2
C[C@H]1CN([C@@H](C)CO)C(=O)c2cc(NC(=O)Nc3cccc4ccccc34)ccc2O[C@H]1CN(C)Cc1ccccc1	i	-2	-14	6.8
COc1cccc(CNC(=O)[C@H]2CCCN2C(=O)[C@H]2CCCN2C(=O)c2cc(F)cc(F)c2)c1	i	19	10	-0.2
CN(C)CCCNC(=O)C[C@@H]1C=C[C@@H](NC(=O)c2ccccc2F)[C@@H](CO)O1	i	1	-1	-2.4

Assay outcomes deposited in PubChem by Broad Institute.
